2A StopGo: lowers the luciferase signal of an FMDV 2A StopGo reporter | human cells with a luciferase reporter of 2A StopGo recoding; control for the full effect not named in the record | hit rate 1.2% among 410,000 | AID 1159524 | Potency, µM (top dose mostly 57.9 µM), without a hit: at the top dose signal change, negative = less light; active = well fitted falling curve with a large enough effect; inconclusive = small, poorly fitted or top-dose-only effect; inactive = no such curve, though single readings can be large or run the other way; tested in HEK293T cells; note: % is set by controls: 0 for no effect and ±100 for the full control effect; nearly all actives have a fitted effect of over 45% in size; luciferase light after 4 h
Cruzain Triton: inhibitors of Trypanosoma cruzi cruzain with detergent; purified cruzain, Z-FR-AMC fluorescence, 0.01% Triton; Potency, µM, inactives show max response, negative = inhibition, most hits filed as inhibitors; hit rate 0.43% among 200,000;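 note: plate controls were neutral wells for no effect and buffer without enzyme for full effect; nearly all actives have a fitted effect of over 40% in size; top concentration of the series not given in the record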
Target sequence (P25779 123-467 limits assumed): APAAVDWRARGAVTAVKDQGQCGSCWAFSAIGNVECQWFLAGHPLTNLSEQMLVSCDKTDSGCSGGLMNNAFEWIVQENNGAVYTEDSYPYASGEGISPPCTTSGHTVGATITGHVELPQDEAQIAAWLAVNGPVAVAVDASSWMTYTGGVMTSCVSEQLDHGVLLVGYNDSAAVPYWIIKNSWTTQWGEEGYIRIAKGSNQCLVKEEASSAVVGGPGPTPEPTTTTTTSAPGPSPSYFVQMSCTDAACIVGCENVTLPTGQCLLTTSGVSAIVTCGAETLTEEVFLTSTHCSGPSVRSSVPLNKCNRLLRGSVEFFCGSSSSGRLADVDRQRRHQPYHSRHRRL
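Steps: dispense cruzain (1.5 nM final) in acetate buffer pH 5.5 with DTT and 0.01% Triton X-100; pin-transfer compounds; incubate 15 min RT; add Z-FR-AMC (2 uM final); read fluorescence every 30 s, using the 60 s intensity change.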
SARS PLP yeast: blocks SARS-CoV papain-like protease in a yeast assay; hit rate 0.19% among 330,000; S. cerevisiae expressing SARS-CoV PLpro, growth rescue; control for the full effect not named in the record; Potency, µM (top dose mostly 32.9 µM), for inactives: at the highest dose activity, positive = growth rescue; active means well fitted rising curve with a large enough effect; inconclusive means small, poorly fitted or top-dose-only effect; inactive means no such curve, though single readings can be large or run the other way; note: 0% is about no effect; nearly all actives have a fitted effect of over 55% in size; growth read by luminescence after 48 h
Lassa entry inh: Lassa virus entry inhibition. AID 540256. Lassa virus pseudotype entry inhibition, cell reporter; control for the full effect not named in the record. hit rate 1.2% among 300,000. Potency, µM (series often up to 37.9 µM), inactives show at the highest dose activity change, negative = inhibition, actives largely listed as inhibitors; active means well fitted inhibition curve with a large enough effect; inconclusive means small, poorly fitted or top-dose-only effect, or effect the other way; inactive means flat fitted curve, though single readings scatter; tested in HEK293 cells; note: % is set by controls: 0 for no effect and ±100 for the full control effect; nearly all actives have a fitted effect of over 50% in size; luciferase read-out
RE007 growth inh: less growth of the S. pombe RE007 Vpr strain. S. pombe RE007 Vpr strain, BacTiter-Glo ATP luminescence, 24 h; control for the full effect not named in the record. Potency, µM (doses to about 92.2 µM), for the others: at the highest dose activity change, negative = less growth. hit rate 0.21% among 360,000. AID 651644; active = well fitted falling curve with a large enough effect; inconclusive = small, poorly fitted or top-dose-only effect; inactive = no such curve, though single readings can be large or run the other way;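 note: % is set by controls: 0 for no effect and ±100 for the full control effect; nearly all actives have a fitted effect of over 50% in size; the assay follows cell death caused by Vpr and the record does not say whether a fall means rescue or toxicity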
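Fission yeast strain RE007, carrying one chromosomally integrated HIV-1 vpr copy, was seeded at OD 0.01 in PMG+AL medium with 23 nL pinned compound. After 24 h at 30 °C and 99% humidity, viability was read by BacTiter-Glo luminescence.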
Marburg entry inh: blocks Marburg virus binding to or entry into cells | Marburg virus pseudotyped entry inhibition, cell reporter; control for the full effect not named in the record; about a third of the inactives were read at about 46 µM | Potency, µM (highest dose often 37.8 µM), for the others: top-dose activity change, negative = inhibition, usual class: inhibitors | hit rate 1.8% among 300,000 | AID 540276; active = well fitted inhibition curve with a large enough effect; inconclusive = small, poorly fitted or top-dose-only effect, or effect the other way; inactive = flat fitted curve, though single readings scatter; tested in HEK293 cells; about a fifth of its hits are not listed in these tables; note: % is set by controls: 0 for no effect and ±100 for the full control effect; luciferase read-out
NS1 inh: influenza NS1 inhibition | S. cerevisiae slowed by influenza A NS1, growth recovery by OD600 | Potency, µM (doses to about 46.1 µM), without a hit: at the highest dose activity, positive = more growth | hit rate 0.4% among 270,000 | AID 2326; active means well fitted rising curve with a large enough effect; inconclusive means small, poorly fitted or top-dose-only effect; inactive means no such curve, though single readings can be large or run the other way; note: nearly all actives have a fitted effect of over 50% in size
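A cell-based growth assay was used: compounds that relieve NS1-induced slow growth of budding yeast raise OD600. Assay medium was yeast nitrogen base with ammonium sulphate and -URA supplement, pH 6.0, with 2% galactose.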
Cruzain noTriton: cruzain (T. cruzi) inhibition without detergent; purified cruzain, Z-FR-AMC fluorescence, no detergent; P25779; Potency, µM, for inactives: max response, negative = inhibition, usual class: inhibitors; hit rate 2.3% among 200,000;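 note: plate controls were enzyme without inhibitor for no effect and buffer without enzyme for full effect; nearly all actives have a fitted effect of over 40% in size; top concentration of the series not given in the record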
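Detergent-free condition (0.00005% Triton X-100) in acetate buffer pH 5.5 with DTT. 1.5 nM enzyme and compound were pre-mixed 15 min, then 2 uM Z-FR-AMC substrate added; reaction progress from fluorescence change between first and third reads (60 s).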
* = called active by the depositor; u = inconclusive; x = not tested or not shown; & = joins results of further samples; [ ] = dose if it differs, or a comment. Unless noted, calls come from the whole dose curve; as a rule, active = well fitted curve in the direction sought with a large enough effect; inconclusive = small, poorly fitted or top-dose-only effect, or another doubt; inactive = no such curve, though single readings can be large; an effect the other way counts as inactive or inconclusive. Potency is the fitted concentration of half-maximal effect.

smiles | SARS PLP yeast | Lassa entry inh | Cruzain Triton | 2A StopGo | Marburg entry inh | RE007 growth inh | Cruzain noTriton | NS1 inh
Cc1ccsc1/C=N\NC(=O)c1n[nH]c2c1CCC2 | -14% | 6.3µM* | -2.9% | 0% | 2.8µM* | -10% | -5% | 4%
O=C1/C(=C\c2ccccn2)SC(=S)N1c1ccc(S(=O)(=O)Nc2nccs2)cc1 | -1% | 14% | x | 61%[activator] | 9%[46.1 µM] | -4% | x | 6%
Cc1ccccc1/C=N\NC(=O)c1csnn1 | -10% | 23% | -1.1% | 26% | u | 1% | -13% | -37%
Cc1c(C(=O)NCC(c2ccco2)N(C)C)oc2c(Cl)cccc12 (configuration not stated) | 0% | -18% | x | -22% | -23% | -6% | x | x
Cc1ccc(C(=O)NCC(=O)OCC(=O)NC2CCS(=O)(=O)C2)cc1C (configuration not stated) | -1% | 14% | 16µM* | -13% | u | -24% | 25µM* | 6%
O=C(O)C1CCC(=O)N1C1c2ccccc2Oc2ccccc21 (configuration not stated) | -6% | x | 3.5% | -26% | x | 9% | 10% | -8%
CCCN(C(=O)CCNC(=O)Cn1cnc2ccccc2c1=O)c1cccc(Cl)c1 | 4% | -4% | x | -16% | u | 15% | x | 6%
Cc1ccc(C(=O)NC2CCCC2)s1 | -1% | x | x | 38% | x | 11% | x | -2%
O=c1cc(Cl)c(-c2ccccc2)nn1Cc1ccc(Cl)cc1 | -4% | -24% | x | -14% | -1% | -1% | x | -14%
CSc1ccc(S(=O)(=O)Nc2cccc(F)c2)cc1 | -8% | x | -9.6% | x | x | x | 0% | -63%
Cc1cccc(C(=O)NCC(=O)NCCSc2ccc(Br)cc2)c1 | 2% | -5%[46.1 µM] | x | 27% | 4% | -8% | x | x
COCCC(=O)N1CCCC(C(=O)c2ccccc2SC)C1 (configuration not stated) | x | -7%[46.1 µM] | x | 6% | 2%[46.1 µM] | 4% | x | x
Oc1ccccc1/C=N/NC(=S)NC1CC2C=CC1C2 (configuration not stated) | 0% | u | x | 67%[activator] | u | u | x | -4%
COc1ccc(C)cc1NC(=O)CNC(=O)Cn1ccc2ccccc2c1=O | 1% | 0% | 6.1% | 10% | u | -5% | 17% | 16%
O=C(CNC(=O)c1ccccc1F)c1ccc(Br)cc1 | 1% | 1%[46.1 µM] | x | 1% | u | -6% | x | -7%
O=C(c1cc(-c2ccc(Cl)cc2)on1)N1CCCCCC1 | -3% | u | x | 48%[activator] | u | 2% | x | 3%
CC(CN1CCOCC1)C(=O)O (configuration not stated) | -11% | 6% | 0.3% | -2% | 16% | -14% | -11% | 1%
O=P(COc1ccccc1)(c1ccccc1)c1ccccc1 | -5% | -6% | 3.7% | 25% | 28% | 4% | 5% | u
OC(CNCc1ccc2c(c1)OCO2)COc1ccccc1 (configuration not stated) | 0% | 1%[46.1 µM] | x | -5% | u | 3% | x | -6%
CCN(CC)S(=O)(=O)c1cccc(C(=O)Nc2ccccc2C(=O)Nc2ccc(Cl)cc2)c1 | x | u | -3.7% | 7% | x | x | -7% | x
COc1ccc(C(=O)Nc2ccc([N+](=O)[O-])cn2)c(OC)c1 | 9% | u | -0.5% | 13% | u | 6% | 9% | 8%
Cc1ccc(CC(=O)Nc2nccs2)cc1 | -2% | x | x | 15% | x | 18% | x | -1%
Cc1ccc(C)c(N(C(=O)c2csnn2)C(C(=O)NC2CCCCC2)c2ccncc2)c1 (configuration not stated) | -3% | -11% | x | -3% | 1%[46.1 µM] | 3% | x | -1%
Cc1ccc(CCNC(=O)C2CCC(=O)N(CC3CCCCC3)C2)cc1 (configuration not stated) | 3% | 2% | x | -8% | 17% | -11% | x | 8%
CCN1CCN(CCNC(=O)CCCCCn2c(=O)[nH]c3cc(C(=O)OC)ccc3c2=O)CC1 | -3% | -1% | -3.3% | -23% | -7% | -1% | -3% | 1%
O=C(C[n+]1ccccn1)c1ccccc1 | 0% | 30% | x | 29% | 8% | -2% | x | u
Cc1cccc(CNC(=O)C2CCCN(c3nn4c(=O)cc(C)nc4s3)C2)c1 (configuration not stated) | 2% | x | x | -17% | x | -2% | x | -1%
Cc1cc(=O)oc2cc(OCC(=O)OCC(=O)Nc3ccccc3F)ccc12 | 0% | 1% | x | 24% | u | 4% | x | -5%
CCCCC(=O)N1CCCC(c2nc3c(nnn3Cc3cc(C)ccc3C)c(=O)[nH]2)C1 (configuration not stated) | -4% | -30%[14.3 µM] | -14% | -14% | -20% | -3% | u | -10%
CN(Cc1nc(-c2ccncc2)no1)S(=O)(=O)c1ccccc1 | 5% | 15% | 2.7% | -22% | 4% | 24% | -5% | 5%
CCOc1ccc(NC(=O)CS(=O)(=O)c2cn(C)c3ccccc23)cc1 | -5% | x | -1.0% | 0% | x | -9% | 3% | -8%
CC(C)c1ccc(NC(=O)c2cc(S(=O)(=O)NCCc3ccccc3)ccc2F)cc1 | x | 6%[46.1 µM] | 1.0% | 10% | x | x | -5% | x
Cc1ccc(SCc2c(C#N)c3ccccc3n2C)cc1 | 2% | 13% | -8.5% | 19% | u | -6% | 0% | -8%
O=C(Cc1ccccc1)NC(Oc1ccccc1Cl)C(Cl)(Cl)Cl (configuration not stated) | 1% | 6% | -5.2% | -21% | -28% | -12% | 5% | -16%
CC(C)(C)c1ccc(Cn2ccc(-c3ccc4c(c3)OCO4)n2)cc1 | -2% | -7% | -3.9% | 6% | 10% | -19% | -7% | -43%
CCc1ccc(NC(=O)Cn2nnc(C(=O)Nc3ccc(F)cc3)c2N)cc1 | x | 9%[46.1 µM] | 1.3% | 5% | x | x | u | x
O=C1NC2(CCCCCC2)C(=O)N1Cc1ccccc1Cl | -3% | -5%[46.1 µM] | x | -9% | u | 1% | x | -4%
CC(C)C1Oc2ccccc2N(CC(=O)N(Cc2ccccn2)C2CC2)C1=O (configuration not stated) | 13% | 3% | -16% | 0% | -13% | -1% | 15% | -3%
O=C1CC(NS(=O)(=O)c2ccc([N+](=O)[O-])cc2)CN1c1ccc(Cl)cc1 (configuration not stated) | -7% | 5% | x | -13% | -11% | -2% | x | x
O=C(Nc1cccc(Br)c1)c1cc(S(=O)(=O)N2CCCCC2)c[nH]1 | x | 15%[46.1 µM] | 0.5% | 40%[activator] | x | x | u | x
Cc1cccc(Cn2c(N3CCN(c4ccccc4)CC3)nc3c2c(=O)n(C)c(=O)n3C)c1 | 6% | 5.8µM* | -9.9% | x | u | 4% | u | -53%
COC(=O)[C@@]1(Cc2ccc(F)cc2)[C@H]2c3cc(C(=O)N(C)C)n(Cc4ccc(OC(F)(F)F)cc4)c3C[C@H]2CN1C(=O)c1ccccc1 | 4% | u | -5.3%&-0.1% | x | u | x | u | u
CCOC(=O)C(O)(c1ccc(N(C)C(=O)COc2ccccc2)cc1)C(F)(F)F (configuration not stated) | x | u | x | -1% | 14% | -4% | x | x
CCC(=O)Oc1ccc(C(=O)Nc2cccc(C(=O)c3ccccc3)c2)cc1 | -4% | u | -3.5% | -19% | -22% | -15% | 6% | -9%
CCOC(=O)C1CCN(C(=O)c2ccc(N(C)S(=O)(=O)c3ccc(OC)cc3)cc2)CC1 | -1% | -6% | x | -25% | 4%[46.1 µM] | -12% | x | -7%
CCc1noc(C)c1C(=O)N1CCCC(N2CCN(c3cccc(Cl)c3)CC2)C1 (configuration not stated) | 14% | -5% | x | 33%[activator] | -7%[46.1 µM] | -4% | x | -5%
CCOC(=O)CC(=O)CSc1ccc2nnc(-c3ccc(C)cc3)n2n1 | 7% | -4% | -2.6% | 3% | -8% | -7% | 5% | u
Cc1cc(-c2ccc(C)c(S(=O)(=O)Nc3cccc(C#N)c3)c2)on1 | x | -5%[46.1 µM] | -3.8% | 25% | x | x | -18% | x
O=C(Cc1coc2cc(O)ccc12)NNC(=O)c1ccc(Br)s1 | -3% | -4% | x | 50%[activator] | 9% | -5% | x | x
Cc1c(NC(=O)Nc2cccc(Cl)c2Cl)c(=O)n(-c2ccccc2)n1C | -3% | 9% | x | -24% | 5% | 3% | x | 12%
Fc1ccc(-c2csc3ncnc(Cl)c23)cc1 | 13% | 11% | -3.6% | u | 0% | 0% | -6% | -9%
Nc1nonc1C(=O)NCCc1ccccc1 | -2% | x | 3.7% | 0% | -3% | -4% | -7% | -5%
COc1cc(NC(=S)NCc2cccnc2)c(OC)cc1Cl | 0% | 27%[46.1 µM] | x | 9% | -17%[46.1 µM] | -13% | x | x
CN1CCN(C(=O)NC2CCCCC2)CC1 | -17% | 11% | -0.6% | -7% | 5% | -12% | -2% | 2%
COCCN(C(=O)Cc1cccs1)C(C(=O)NC1CCCC1)c1cc(OC)c(OC)c(OC)c1 (configuration not stated) | -3% | -24% | x | -15% | 2%[46.1 µM] | 5% | x | -36%
CN(Cc1cccc(F)c1)C(=O)Cc1ccc(S(=O)(=O)N2CCOCC2)s1 | 3% | u | x | -3% | u | 1% | x | x
COc1cccc(NC(=O)C2=COCCO2)c1 | -7% | -12% | x | 7% | 4% | -7% | x | x
CS(=O)(=O)N1CCN(c2ccccc2NC(=O)c2ccc3c(c2)OCCO3)CC1 | 0% | 2%[46.1 µM] | x | -8% | u | -23% | x | -10%
O=C(OCC(=O)N1CCN(c2ccccc2)CC1)c1ccco1 | -5% | 7% | 0.4% | 25% | u | 1% | -3% | -6%
COc1ccc(NC(=O)c2ccco2)cc1NC(=O)c1cc(OC)c(OC)c(OC)c1 | x | -21%[46.1 µM] | -2.4% | -25% | -19%[46.1 µM] | x | -8% | x
O=C(Nc1ccccc1N1CCCC1)C1CCCO1 (configuration not stated) | -2% | 2%[46.1 µM] | x | -8% | u | 1% | x | x
Cc1ccc(OCC(=O)O/N=C(\N)c2ccccn2)cc1 | -1% | -14% | x | 0% | 0%[46.1 µM] | 4% | x | -11%
O=C(COC(=O)C1CCCCC1C(=O)N1CCc2ccccc21)NCc1ccco1 (configuration not stated) | 0% | 19% | -6.9% | -14% | 10% | 0% | 0% | 2%

Screens as filed in PubChem BioAssay.

Outcome played no part in choosing rows (roughly 4.5% active in at least one column).
